# Compound activity: PubChem, several laboratories
# PABP polyA inh = blocks human PABP binding to poly(A) RNA | P11940 | fluorescence polarization | inhibition, % at 35 µM | 290,000 compounds, 1% hits;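 active means 50% or more with normal probe brightness, or confirmed in later tests; inconclusive means above 50% with abnormal brightness, or retests that disagree; inactive means below 50% or failed in later tests; about a fifth of its hits are not listed in these tables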;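 further: calls also rest on retests at 20 µM and on dose response follow-up; controls were probe without protein and protein plus probe with vehicle; some compounds called inactive have numbers as strong as hits; many hits fall short of the cut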
# Target sequence (P11940 whole entry, looked up): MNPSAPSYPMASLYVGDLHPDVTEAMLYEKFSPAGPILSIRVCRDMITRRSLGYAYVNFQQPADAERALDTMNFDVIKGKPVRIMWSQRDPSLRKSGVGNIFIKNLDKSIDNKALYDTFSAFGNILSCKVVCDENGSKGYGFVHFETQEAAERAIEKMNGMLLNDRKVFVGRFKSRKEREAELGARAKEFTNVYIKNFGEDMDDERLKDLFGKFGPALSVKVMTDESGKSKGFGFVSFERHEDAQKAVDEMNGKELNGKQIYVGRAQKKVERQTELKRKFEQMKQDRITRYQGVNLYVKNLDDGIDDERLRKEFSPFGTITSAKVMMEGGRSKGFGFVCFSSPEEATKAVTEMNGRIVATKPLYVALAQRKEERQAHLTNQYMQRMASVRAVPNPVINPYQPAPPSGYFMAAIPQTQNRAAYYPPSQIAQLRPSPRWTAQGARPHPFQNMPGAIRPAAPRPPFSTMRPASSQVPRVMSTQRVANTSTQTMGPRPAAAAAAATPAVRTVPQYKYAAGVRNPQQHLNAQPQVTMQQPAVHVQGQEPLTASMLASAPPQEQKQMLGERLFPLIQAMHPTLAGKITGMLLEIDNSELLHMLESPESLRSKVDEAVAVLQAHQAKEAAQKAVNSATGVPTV
# MT1-MMP act inh = blocks activation of human MT1-MMP; P50281; HT1080 RFP-PRO-GFP cells, GFP/RFP ratio fluorescence, overnight; percent of plate control window, DMSO zero; GFP/RFP ratio change, % at 20 µM; 360,000 compounds, 0.061% hits; AID 651647;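 active means GFP/RFP ratio change of at least 30% with cell ATP level not reduced by more than half and red fluorescence within 50% of control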; further: strong numbers were not always called active
#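 Material – HT1080 RFP-PRO-GFP cells · Control set – DMSO wells and RFP-L50D-GFP cells · Incubation – overnight cell settling, then overnight compound exposure, 37 °C, 5% CO2 · Compound dosing – single-point 20 µM compound, 1% DMSO · Read-out – GFP/RFP fluorescence ratio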
# eIF4H FP inh = inhibitors of RNA binding by human eIF4H. Q15056. eIF4H fluorescence polarization binding assay. inhibition, % at 35 µM. 290,000 compounds, 0.94% hits. AID 2012;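 active means 50% or more with normal probe brightness, or confirmed in later tests; inconclusive means above 50% with abnormal brightness, or retests that disagree; inactive means below 50% or failed in later tests; about a fifth of its hits are not listed in these tables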;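 further: calls also rest on retests at 20 µM and on dose response follow-up; 0% = protein and probe with vehicle and 100% = probe without protein; strong numbers were not always called active; many hits fall short of the cut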
# CSC inhib = cancer stem cell inhibition; 300,000 compounds, 1.1% hits; cancer stem cell-like cells viability, luminescence; inhibition, % at 7.5 µM;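 active means mean at 75% or more and at least half the replicates too; inconclusive means mean and replicates disagree; tested in HMLE shEcad cells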;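 further: 0% = median of negative and 100% = median of positive control wells; the first replicate is given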
# HIV Env fusion = HIV envelope-mediated fusion inhibition; HeLa-JRFL Env/CEM21 cell fusion, luciferase; inhibition, % at 12.3 µM; 360,000 compounds, 1.1% hits; AID 651610;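 active means mean replicate inhibition score of at least 50 and every replicate individually at or above 50; inconclusive means only one of the two criteria met; inactive means mean below 50 and not all replicates reaching 50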;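 further: 0% = plate neutral controls and 100% = maraviroc near 300 nM; one replicate is shown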
# Yeast UUG start = alters start codon recognition fidelity in yeast; S. cerevisiae UUG-firefly luciferase reporter, luminescence/redox ratio; activity score, % at 18.7 µM; 350,000 compounds, 0.13% hits; AID 602363;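 active means replicate mean at a twofold rise or more, about +100% in these data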;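 further: firefly luciferase made from a UUG start codon reports start codon fidelity; reporter light over untreated wells divided by growth signal over untreated wells; some hits fall short of that in this replicate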
# Rce1 inhib = yeast Ras-converting enzyme inhibition; Q03530; yeast membranes, quenched prenylated peptide cleavage fluorescence; AID 2563; 290,000 compounds, 0.27% hits; calls only;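 active means fall in fluorescence gain of 50% or more versus controls, with final raw signal at or below 3038400; inconclusive means same 50% fall but final raw signal above 3038400; inactive means fall in fluorescence gain under 50%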;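 further: plate controls were neutral control wells for no effect and wells lacking membranes for full effect; tested at 10 µM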
# eIF4H FP inh retest = further read-out of eIF4H FP inh, marked with its call; inhibition, %; compound at 20 µM; confirmation average;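 mean of two retest wells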
# PABP polyA inh retest = second read-out of PABP polyA inh, no call of its own (marks repeat the call); inhibition, %; compound at 20 µM; confirmation repeats;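 mean of two retest wells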
# MT1-MMP act inh RFP = also measured in MT1-MMP act inh; calls as there; RFP signal change, %; measured here: RFP expression control read;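 0 = vehicle wells; hits needed this value within 50% of zero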
# The depositor's hits bear a star; i = inactive; ? = inconclusive; nt = not tested or not shown. A portion of the library (hit frequency here may not be typical).
SMILES,PABP polyA inh,MT1-MMP act inh,MT1-MMP act inh RFP,eIF4H FP inh,CSC inhib,HIV Env fusion,Yeast UUG start,Rce1 inhib,others
COc1ccc(-c2n[nH]c(=S)n2/N=C/c2cccn2C)cc1,-9,3,0,-5,-13,-1,-11,i,
O=C(COC(=O)c1cnccn1)Nc1ccc(Cl)cc1,3,4,3,-4,-18,-15,-16,i,
O=C(Nc1ccc(CN2CCCCC2)cc1)c1c(F)c(F)c(F)c(F)c1F,-14,-1,-2,-3,3,21,-15,i,
O=C1N[C@@H](Cc2ccccc2)[C@@H](c2ccco2)O1,3,-1,3,-2,-18,-10,-16,i,
C=CCCC(=O)N1C[C@H]2CON(C)[C@H]2C[C@H]1c1ccc(N2CCCCC2)cc1,nt,1,3,nt,nt,-9,-2,nt,
CC/C(C)=N\NC(=O)CNC(=O)c1ccc(Cl)cc1Cl,11,3,6,0,5,-12,-8,i,
COc1ccc(OC)c(NC(=O)c2ccc(-n3cccn3)nc2)c1,101*,4,2,106*,-1,-43,-13,i,
O=C(COC(=O)C1CCN(c2ccc(C(F)(F)F)cn2)CC1)NCc1ccc(Cl)cc1Cl,nt,3,-3,nt,-13,-9,-11,i,
CCN(CC)c1ccc(S(=O)(=O)N2CCOCC2)cc1NC(=O)Cn1nc(C)c([N+](=O)[O-])c1C,nt,3,-2,nt,-9,nt,15,nt,
CCNC(=O)COc1ccc(CC)cc1,-2,-1,4,12,2,-2,nt,i,
O=C(CNS(=O)(=O)c1ccccc1)NCc1cccnc1,6,1,4,2,-13,-8,-18,i,
CC(=O)Oc1ccccc1C(=O)N(C1CCCCC1)C1CCCCC1,5,-4,-1,3,8,9,9,i,

# The final 2 compounds of the part above open the next one:
SMILES,PABP polyA inh,MT1-MMP act inh,MT1-MMP act inh RFP,eIF4H FP inh,CSC inhib,HIV Env fusion,Yeast UUG start,Rce1 inhib,others
O=C(CNS(=O)(=O)c1ccccc1)NCc1cccnc1,6,1,4,2,-13,-8,-18,i,
CC(=O)Oc1ccccc1C(=O)N(C1CCCCC1)C1CCCCC1,5,-4,-1,3,8,9,9,i,
COc1ccc(-c2nc3c(-c4ccccc4)cnn3cc2C)cc1F,-12,-2,-5,2,1,-52,-12,i,
COc1ccc2c(c1)c(CC(=O)OCC(=O)N(C)C)c(C)n2C(=O)c1ccc(Cl)cc1,-2,-3,-6,-2,4,18,-1,i,
O=C1C(O)CC2c3ccccc3CC3(CCCC3)N12 (stereo not drawn),10,-11,7,2,21,5,-7,i,
COc1cccc(CN2CCCC(C(=O)c3ccc4c(c3)OCO4)C2)c1OC (stereo not drawn),-6,1,1,-7,10,-3,nt,i,
CCN(CC)S(=O)(=O)c1ccc(N2CCc3cc(OC)c(OC)cc3C2)nc1,-3,2,-4,-3,nt,21,9,i,
O=C(/C=C/c1ccccc1)NCCc1c[nH]c2ccccc12,nt,2,4,nt,4,5,1,i,
O=[N+]([O-])c1ccc2c(c1)/C(=N\O)c1ccccc1-2,-5,1,-8,-8,14,2,-13,i,
CC1CCCCC1NC(=O)c1nn(C)c(=O)c2ccccc12 (stereo not drawn),-8,1,7,4,-3,-9,7,i,
COc1ccc(CNC(=O)C(=O)c2cn(CC(=O)N3CCCC3)c3ccccc23)cc1,-3,-2,1,1,10,-7,4,i,
Cn1c(=O)c2c(nc(NCCOc3ccc(F)cc3)n2C)n(C)c1=O,-2,-3,-7,-5,3,16,nt,i,
Cc1oc(-c2cc3c(cc2Cl)OCO3)nc1CN1CCCC1c1ccc(F)cc1 (stereo not drawn),-5,-5,-3,-1,13,-6,nt,i,
Cc1nc(NC(=O)c2ccccc2)sc1-c1csc(Nc2ccc(C(=O)O)cc2)n1,15,-3,-4,88,nt,1,-11,i,eIF4H FP inh retest=2;PABP polyA inh retest=17
Cn1cccc1C(=O)Nc1ccc(Cl)c(S(=O)(=O)N2CCCCC2)c1,nt,-4,-18,nt,-7,nt,-2,nt,
N#Cc1c(-c2ccccc2)c(-c2ccccc2)nn(CC(=O)NNC(=O)Nc2ccccc2)c1=O,-3,8,-11,-3,54,nt,0,i,
CCN(CC)S(=O)(=O)c1ccc(OC)c(NC(=O)C(Cc2ccccc2)N2C(=O)c3ccccc3C2=O)c1 (stereo not drawn),7,nt,nt,3,-8,nt,nt,i,
COc1cccc(C(=O)Nc2nnc(-c3cccs3)o2)c1,8,6,3,13,22,-5,-36,i,
Cc1c(C(=O)NNC(=O)c2ccccc2O)oc2ccc(Br)cc12,nt,2,-6,nt,27,-77,4,i,
CC1=CC(=O)C(C(C)=Nc2cccc(Cl)c2)C(=O)O1 (stereo not drawn),nt,-1,4,nt,nt,-6,-9,nt,
CC1(C(=O)NCc2cccc3ccccc23)CCN1Cc1cc2ccccc2o1 (stereo not drawn),nt,-5,-12,nt,nt,-5,1,nt,
CC1CCN(CC(=O)NC(=O)NCc2ccccc2)CC1,-6,0,3,-2,-10,-9,20,i,
CC(C)(C)CNC(CO)C12CC3CC(CC(C3)C1)C2 (stereo not drawn),7,-1,4,-3,24,nt,-3,i,
COCCNC(=O)COc1ncnc2ccc(Br)cc12,-6,2,7,0,-2,nt,-13,i,
O=C(Nc1ccccc1)C1CCCN1S(=O)(=O)c1cccs1 (stereo not drawn),nt,6,0,nt,-2,15,-14,i,
COC(=O)C1CN(C(=O)COc2ccccc2C)c2ccccc2O1 (stereo not drawn),30,0,3,26,-22,14,0,i,
Oc1cccc(-n2nnnc2SCc2ccccc2F)c1,-2,-2,0,-5,9,-6,-17,i,
COc1cccc(OCCNC(=O)CSc2ccc(C(F)(F)F)cc2[N+](=O)[O-])c1,2,4,6,-2,11,8,nt,i,
COc1ccc(CNCCC(c2ccc(OC(C)C)cc2)c2ccccc2OC)cc1 (stereo not drawn),0,-11,-8,0,103*,?,nt,i,
Cc1[nH]n2c(=O)cc(C(C)C)nc2c1-c1ccccc1,2,1,-2,-1,17,-53,-25,?,
CN(C)CCCN(C(=O)c1ccc2c(c1)CCCC2)c1nc2c(F)cccc2s1,1,-4,-4,-6,18,-3,-7,i,
CCOC(=O)C1CCN(C(=O)c2cc3c(-c4ccc(OC)c(OC)c4)nn(C)c3s2)CC1,-6,5,2,-9,-4,nt,8,i,
COc1ccc(CN2CCNC(=O)C2CC(=O)N(C)C2CCCCC2)cc1OC (stereo not drawn),nt,-3,4,nt,nt,-2,-2,nt,
O=C(O)c1nc(NCc2ccccc2)ncc1Cl,4,-4,0,-10,0,2,-24,i,
O=C1CCCC(=O)N1c1ccc(Oc2ccc(Cl)cc2)cc1,9,-1,-2,-6,-5,13,nt,i,
O=c1c(Cc2ccc(Cl)cc2Cl)c(O)ccn1CC(F)(F)F,-6,-6,-6,-12,-4,7,-8,i,
COc1ccc(N/C(N)=N/c2nc(C)cc(=O)[nH]2)cc1,-2,0,6,-5,-7,-3,10,i,
CC(C)C[C@@H](CO)N1CCN(Cc2cccnc2)CCC1=O,-5,-3,0,-6,2,-12,-16,i,
Cc1ccccc1CCNC(=O)CCn1ccc2cc(S(=O)(=O)N3CCCC3)ccc21,4,4,0,-11,-10,29,0,i,
NC1=NC(=O)/C(=C/c2ccccc2OS(=O)(=O)c2ccc3ccccc3c2)S1,-1,2,-1,-16,-7,nt,-23,i,
O=C(NC1CCN(S(=O)(=O)c2ccccc2C(F)(F)F)CC1)c1ccco1,12,-2,1,7,18,7,-16,i,
Cc1ccc(OCCNC(=O)c2ccc(C)o2)cc1,nt,-1,-1,nt,nt,2,-7,nt,
Cc1oc2c(C)c3oc(=O)c(CCC(=O)NCCCCCC(=O)O)c(C)c3cc2c1C,14,8,2,-3,-7,20,nt,i,
COc1ccc(-c2cc3ccccc3[nH]2)cc1,-7,9,0,-5,3,-171,-9,i,
CN1CCC(N(C)C(=O)c2cc(-c3ccccc3Cl)nc3ccccc23)CC1,nt,-4,3,nt,28,nt,-9,nt,
Cc1ccc(-n2c(SC3CCOC3=O)nc3ccccc3c2=O)cc1 (stereo not drawn),6,nt,nt,-7,-1,nt,nt,i,
CC(=O)c1ccc(OCc2cc(C(=O)N(C)C(C)c3nccs3)no2)cc1 (stereo not drawn),7,3,-6,11,nt,-14,-11,i,
Cc1cc(=O)[nH]c2c(C)c(N)ccc12,5,4,2,-2,nt,15,-12,i,
CN1CCN(C(=O)c2ccc3c(c2)N(Cc2ccccc2)CCS3)CC1,-9,-1,2,-8,58,nt,-9,i,
Cc1c(C(=O)N/N=C/c2ccccn2)nnn1-c1nonc1N,5,-1,-1,3,4,-4,-13,i,
Cc1ccnc2ccc(SC(F)(F)F)cc12,4,3,4,-1,-10,5,-27,i,
COc1ccc(-c2nc(-c3ccc(Br)o3)no2)cc1OC,-8,-4,-3,4,7,-86,-20,i,
CCOC(=O)N1CCN(C(=O)c2ccc3c(=O)n(Cc4ccccc4OC)c(=S)[nH]c3c2)CC1,6,2,0,-10,16,-67,-17,i,
CCCC(CCC(=O)Nc1ccn(-c2ccccc2)n1)C(=O)O (stereo not drawn),-4,0,4,-5,4,-1,nt,i,
O=C(CCS(=O)(=O)c1ccc2c(c1)NC(=O)CO2)NCc1ccccc1,-12,3,5,3,10,-3,6,i,
CCC(=O)Nc1c2c(nn1-c1ccc(F)cc1)CS(=O)C2 (stereo not drawn),-2,2,4,-7,-9,-6,-30,i,
Cc1cccc(C)c1NC(=O)CNC(=O)c1ccccc1OCc1ccccc1,nt,2,0,nt,-18,4,nt,i,
CC(=O)NC1(C(F)(F)F)C(=O)Nc2c1c(=O)n(C)c(=O)n2C (stereo not drawn),8,0,6,0,nt,-5,-13,nt,
Cc1ccc(CN2CCN(C(=O)c3ccncc3)CC2)cc1,7,2,7,1,-4,11,-4,i,
CCNC(=O)CSc1nc2ccccc2c(=O)n1OC,1,-6,-1,-11,nt,nt,11,i,
CC(C)(C)OC(=O)C[C@@H]1C/C=C\C[C@H](CC(=O)N(CCO)Cc2ccccc2)C(=O)N[C@@H](Cc2c[nH]c3ccccc23)COC1=O,nt,-3,-1,nt,-19,-9,-1,nt,
CC(NC(=O)c1cn(C)c2ccc(S(=O)(=O)N3CCCC3)cc2c1=O)c1ccccc1 (stereo not drawn),-7,2,-1,-3,9,-4,0,i,
# Next compounds:
SMILES,PABP polyA inh,MT1-MMP act inh,MT1-MMP act inh RFP,eIF4H FP inh,CSC inhib,HIV Env fusion,Yeast UUG start,Rce1 inhib,others
Cc1ccccc1OCCCN1CCCC1,4,0,7,1,-12,-64,-11,i,
CCn1c(SCC(=O)Nc2nccs2)nnc1-c1ccco1,6,1,3,6,2,-11,nt,nt,
Cc1ncc(CN2CCCCC2C(=O)Nc2ccc(Oc3ccccc3)nc2)cn1 (stereo not drawn),2,2,1,-4,1,nt,-3,i,
O=S(=O)(Nc1ccccc1-c1ccccc1)c1ccccc1,nt,6,0,nt,nt,-19,-4,nt,
Cc1ccc(Cl)c2sc(N3CCN(C(=O)c4ccco4)CC3)nc12,nt,-1,-3,nt,32,0,-6,i,
O=C(COc1ccc(Cl)cc1)N1CCCC1,1,-1,-1,3,nt,12,-14,i,
Cc1ccc(C)c(NC(=O)CN(C)C(=O)c2ccc(S(=O)(=O)N3CCCCCC3)cc2)c1,nt,1,-3,nt,nt,2,-12,nt,
